Bioassay records deposited in PubChem by National Center for Advancing Translational Sciences (NCATS).
VDR inhibitor = Inhibitors of the vitamin D receptor (VDR): qHTS | Vitamin D3 receptor (Homo sapiens), P11473 | VDR-SRC2-3 peptide fluorescence polarization, 2 h | Potency, µM, inactives show max response, negative = inhibition, most hits filed as inhibitors | 400,000 compounds, 0.93% hits; active = well fitted inhibition curve with a large enough effect; inconclusive = small, poorly fitted or top-dose-only effect, or another doubt; inactive = no such curve, though single readings can be large or run the other way; also: series mostly up to about 120 µM
Target sequence (P11473 whole entry, looked up): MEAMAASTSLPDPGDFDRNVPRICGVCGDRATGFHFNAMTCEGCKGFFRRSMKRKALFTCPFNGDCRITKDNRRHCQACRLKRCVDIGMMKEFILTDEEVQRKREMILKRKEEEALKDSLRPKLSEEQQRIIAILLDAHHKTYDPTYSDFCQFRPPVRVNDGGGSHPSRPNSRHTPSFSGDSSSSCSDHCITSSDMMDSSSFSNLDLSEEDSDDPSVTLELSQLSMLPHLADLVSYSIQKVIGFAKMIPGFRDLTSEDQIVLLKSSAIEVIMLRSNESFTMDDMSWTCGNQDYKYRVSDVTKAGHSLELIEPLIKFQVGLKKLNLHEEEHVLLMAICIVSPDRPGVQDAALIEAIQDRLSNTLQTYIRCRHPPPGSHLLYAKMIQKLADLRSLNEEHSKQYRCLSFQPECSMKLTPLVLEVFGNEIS
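Reagent solutions, kept cold and dark, are dispensed first; compounds are then pinned in at 23 nl, plates briefly spun, and incubated 2 h at ambient temperature. Inhibition of VDR–SRC2-3 peptide binding is read by fluorescence polarization.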
Active calls of the source: *; u = inconclusive; & = joins results of further samples; [ ] = another dose, or the depositor's remark. % is scaled to controls: 0 for no effect and ±100 for the full control effect; potency is read from the fitted curve at half-maximal effect. An excerpt; rates above refer to the full screens.

SMILES	VDR inhibitor
Cc1cccc([C@@H]2[C@@H]3C(=O)N(Cc4ccccc4)C(=O)[C@@H]3[C@]3(Cc4ccccc4)C(=O)N(c4cccc(F)c4)C(=O)N23)c1	-16.4%
CCCCn1c(N)c(N(CCOC)C(=O)c2cc3c(s2)CCC(C)C3)c(=O)[nH]c1=O (stereo not given)	-4.1%
O=C(O)c1cccc(CN2C(=O)c3ccccc3C2=O)c1	-15.3%
O=C(c1cccc(S(=O)(=O)NCc2ccccc2)c1)N1CCN(Cc2ccccc2)CC1	15.9%
CCn1nnc(NC(=O)c2c(OC)cccc2OC)n1	-0.4%
CC(=O)Nc1ccc(S(=O)(=O)Nc2ccc(S(=O)(=O)Nc3nccs3)cc2)cc1	-6.2%
CC#CC(=O)N1CCCC(C(=O)c2ccc(SC)cc2)C1 (stereo not given)	2.5%
CCCc1nc2sc3ccccc3c(=O)c2c(=O)n1Cc1ccc(OC)cc1	-1.7%
O=C(Nc1cccc(S(=O)(=O)N2CCOCC2)c1)c1cc2c(s1)CCC2	-4.9%
Cc1ccccc1C(=O)NC(=S)Nc1ccccc1[N+](=O)[O-]	-1.2%
COc1ccc(NC(=O)CSc2nc3ccc(Nc4nc(N5CCOCC5)nc(N5CCOCC5)n4)cc3s2)cc1	-6.8%
CC(Oc1ccc(-c2ccccc2)c(F)c1)c1ccn(S(=O)(=O)c2ccc(Cl)cc2)n1 (stereo not given)	12.2%
COc1ccc(-c2cnn3c(C)cc(C)nc23)cc1OC	2.5%
O=C(Nc1ccc(S(=O)(=O)NCCc2ccccc2)cc1)c1ccc(Br)o1	2.8%
Cc1ccc(N2C(=O)CC(C)(C)CC2=O)cc1Cl	-4.7%

4 of these compounds, set out differently:
compound: Cc1cccc([C@@H]2[C@@H]3C(=O)N(Cc4ccccc4)C(=O)[C@@H]3[C@]3(Cc4ccccc4)C(=O)N(c4cccc(F)c4)C(=O)N23)c1
  VDR inhibitor = -16.4%

compound: CCn1nnc(NC(=O)c2c(OC)cccc2OC)n1
  VDR inhibitor = -0.4%

compound: CC(Oc1ccc(-c2ccccc2)c(F)c1)c1ccn(S(=O)(=O)c2ccc(Cl)cc2)n1 (stereo not given)
  VDR inhibitor = 12.2%

compound: O=C(c1cccc(S(=O)(=O)NCc2ccccc2)c1)N1CCN(Cc2ccccc2)CC1
  VDR inhibitor = 15.9%

(list continues)
SMILES	VDR inhibitor
Cc1ccc(S(=O)(=O)NCC(c2ccco2)S(=O)(=O)c2ccccc2)cc1 (stereo not given)	24.7%
N#C/C=C/N1CCN(Cc2ccc3c(c2)OCO3)CC1	-6.8%
Cc1ccc(CCNC(=O)C2CC(c3cccc(F)c3)=NO2)cc1 (stereo not given)	-14.8%
Cc1ccc(S(=O)(=O)NC(=O)Nc2cc(C)on2)cc1	9.5%
Cc1cc(C)c(S(=O)(=O)N(C)CC(=O)NCc2cccnc2)c(C)c1	-0.7%
CCCn1c(CN2CCN(C(=O)c3ccco3)CC2)nc2cc(S(=O)(=O)N(C)C)ccc21	-12.7%
Cc1cc(C(=O)OCC(=O)Nc2cccnc2Cl)c2ccccc2n1	-21.2%
O=C(CSc1nccc(=O)[nH]1)Nc1ccc(Br)c(Cl)c1	9.1%
O=C1C(=O)N(Cc2cccnc2)C(c2cccc(O)c2)/C1=C(\O)c1ccc2c(c1)OCCO2 (stereo not given)	0.0%
Cc1cccc(C)c1OCC(O)CN1CCN(c2ccccc2)CC1 (stereo not given)	10.5%
Cc1ccc(S(=O)(=O)N2CCC(C(=O)N3CCC[C@H]3C(=O)NCc3ccco3)CC2)cc1	-28.4%
CC1(C(=O)OCC(=O)NC(=O)NCc2ccccc2)CC1(Cl)Cl (stereo not given)	-3.5%
Cc1nc(-c2ccc(C(=O)Nc3cccc(F)c3)cc2)cs1	9.8%
O=C(OCC(=O)N1CCN(c2ccccc2)CC1)c1cc(Cl)ccc1[N+](=O)[O-]	5.7%
COc1ccc(-c2noc(CSc3nnc(-c4ccccc4)n3-c3ccc(F)cc3)n2)c(OC)c1	6.8%
Cc1cccc(C(=O)c2cnc3ccccc3c2-c2ccccc2)c1	10.3%
COc1ccc(N2CC(C(=O)Nc3cc(C(F)(F)F)ccc3N3CCCC3)CC2=O)c(OC)c1 (stereo not given)	-0.2%
CCOc1ccc(-c2nc(C#N)c(NCc3ccc4c(c3)OCO4)o2)cc1	8.1%
Clc1ccc(OCc2nn3c(C4CCCCC4)nnc3s2)cc1	u
NC(=O)/C=C\C(=O)Nc1cccc(C(F)(F)F)c1	-17.4%
COc1ccc(S(=O)(=O)N(CCc2ccccc2)CC(=O)NCCCO)cc1	-5.9%
O=C(CSc1nc2ccccc2nc1SCC(=O)N1CCOCC1)N1CCOCC1	-2.7%
COc1cc2c(cc1OC)CN(C(=S)Nc1ccc(Cl)cc1)CC2	-3.8%
Cc1nc(C(=O)Nc2ccc(Cl)cc2)sc1C1(C)CC(c2cccc([N+](=O)[O-])c2)=NO1 (stereo not given)	2.2%
O=[N+]([O-])c1ncn(Cc2ccccc2Cl)n1	-8.7%
O=C(N/N=C\c1coc2ccccc2c1=O)c1ccco1	4.1%
COc1ccc(-c2cc(C(=O)NN)[nH]n2)cc1	-3.4%
COc1ccc(NC(=O)CSc2ccc3nnc(-c4ccccn4)n3n2)cc1	-8.5%
Cc1ccc2nc(SCC(=O)N3CCCc4ccccc43)nc(=O)n2c1	-6.9%
CC(=O)C1=C(Nc2ccc(C)cc2)CC(C)(O)C(C(C)=O)C1c1ccco1 (stereo not given)	-0.7%

Two entries from above, bar-delimited:
canonical_smiles | VDR inhibitor
O=C(N/N=C\c1coc2ccccc2c1=O)c1ccco1 | 4.1%
COc1ccc(-c2cc(C(=O)NN)[nH]n2)cc1 | -3.4%

(cont.)
SMILES	VDR inhibitor
COc1cc(OC)cc(C(=O)N[C@H](C(=O)OCC(=O)c2ccc(C)c([N+](=O)[O-])c2)C(C)C)c1	6.1%
O=C(Nc1ccc2c(c1)OCO2)N1CCN(C/C=C/c2ccccc2)CC1	-5.1%
COc1cccc(N2CCN(C(=S)Nc3ccccc3OC)CC2)c1	-15.1%
Cc1ccc(OCc2nnc(SCC(=O)Nc3ccc(N4CCOCC4)cc3)o2)cc1	-4.1%
COc1ccc(NC(=O)CN(c2ccccc2F)S(=O)(=O)c2ccc(C)cc2)c(OC)c1	-5.2%
CCCCNC(=O)COC(=O)c1c2c(nc3ccccc13)/C(=C\c1cccs1)CC2	7.1%
Cc1cc(/C=N/NC(=O)CC#N)c(C)n1-c1ccc([N+](=O)[O-])cc1	u
Cc1noc2ncnc(N3CCCC(C(=O)Nc4cccc(C(F)(F)F)c4)C3)c12 (stereo not given)	0.3%
CSCCC(NC(=O)c1ccc(Cl)cc1Cl)C(=O)OCC(N)=O (stereo not given)	0.2%
O=c1[nH]c2ccccc2nc1/C=C(\O)C(F)F	-8.3%
COc1ccc(-n2ccn3c(CCC(=O)N4CCN(c5cccc(C)c5C)CC4)nnc3c2=O)cc1	-1.2%
COc1cccc2sc(Nc3nc(-c4cc5ccccc5oc4=O)cs3)nc12	-2.6%
O=[N+]([O-])c1cc(S(=O)(=O)N2CCCCCC2)ccc1Cl	6.0%
O=C(C1CC1)N1CCN=C1SCc1ccccc1Cl	-6.8%
Cc1cc(NC(=O)CC(C)C)c(=O)n(Cc2cccc(F)c2)c1	u

As entered above:
Reading of O=C(CSc1nccc(=O)[nH]1)Nc1ccc(Br)c(Cl)c1 under VDR inhibitor: 9.1%
Reading of COc1ccc(-c2cc(C(=O)NN)[nH]n2)cc1 under VDR inhibitor: -3.4%

Next compounds follow:
SMILES	VDR inhibitor
C/C(=N\NC1=NCCN1)c1ccc(Cl)cc1	2.5%
CCCCSc1nnc(CNC(=O)C23CC4CC(CC(C4)C2)C3)n1Cc1ccccc1	-2.8%
CCOc1cccc(CNn2cnnc2)c1OCc1ccccc1Cl	-9.6%
COc1ccccc1NC(=O)C(C)OC(=O)CC1CCCC1 (stereo not given)	-15.1%
Cc1cc(-c2ccccc2)nc(N(C)NC(=O)C(C)(C)C)c1S(C)(=O)=O	0.5%
CC/S(=N\S(=O)(=O)c1ccc(C)cc1)c1ccccc1 (stereo not given)	-10.9%
O=c1c(CCc2ccccc2)nc2cnc(N3CCOCC3)nc2n1Cc1ccc(F)cc1	-9.1%
CCC(C)NC(=O)CSc1nc2scc(-c3ccccc3)c2c(=O)[nH]1 (stereo not given)	-17.0%
O=C(Nc1ccc(F)cc1F)c1cnn(-c2ccc(F)cc2)c1-n1cccc1	11.9%
COc1cccc2cc(C(=O)Nc3ccc(CC(=O)O)cc3)c(=O)oc12	9.3%
C/C(Nc1ccccc1)=C(/C#N)C(N)=O	12.5%
CC(CNC(=O)c1ccc(C#N)cc1)NC(=O)c1ccc(C#N)cc1 (stereo not given)	-14.2%
COc1ccc(Cl)cc1NC(=O)C1Cc2ccccc2CN1S(C)(=O)=O (stereo not given)	17.2%
O=C(NNS(=O)(=O)c1ccc(F)cc1)C1CCN(Cc2cccc(F)c2)CC1	9.6%
CCOC(=O)N1CCC(NC(=O)c2ccc(CS(=O)c3ccc(Cl)cc3)o2)CC1 (stereo not given)	-8.9%
CCn1c(O)c(N=NC(=O)c2cccc(S(=O)(=O)N3CCCCC3)c2)c2ccccc21	-6.9%
Cc1c(C(=O)NCc2cccc(Cl)c2)sc2nc[nH]c(=O)c12	12.7%
CC(=O)Nc1ccc(NC(=O)CN2C(=O)COc3ccc(S(=O)(=O)N4CCOCC4)cc32)cc1	-7.3%
O=C(Nc1ncccc1O)c1cccc(S(=O)(=O)N2CCc3ccccc32)c1	1.2%
CC(C)c1nc(CNC(=O)CC2C(=O)NCCN2Cc2ccoc2)cs1 (stereo not given)	-15.4%
CC(=O)Nc1cccc(Oc2ncnc3scc(-c4ccccc4)c23)c1	6.4%
Nc1nonc1-n1nnc(C(=O)N/N=C/c2cc(Br)cs2)c1-c1ccccc1	20.9%
O=C(COC(=O)c1ccc(F)cc1)NCCCc1ccccc1	95.0%[activator]
O=C1NCCNC1(c1c[nH]c2ccccc12)C(F)(F)F (stereo not given)	-2.3%
CCCOC(=O)C1[C@H]2C(=O)N(CC3CCCO3)C[C@]23C=C[C@H]1O3 (stereo not given in full)	0.0%
COc1ccc(/C=C/C(=O)O)cc1Cl	-8.5%
CN1C(C(=O)Nc2ccc(OC(F)(F)F)cc2)=CC(c2cccs2)=NS1(=O)=O	4.2%&9.3%
O=C(NCCC1=CCCCC1)C(=O)NCc1ccccc1	-11.7%
CC(c1ccccc1)n1c(SCC(=O)Nc2ccccc2)n[nH]c1=O (stereo not given)	-9.2%
CN(CC(=O)NC1CCCCCC1)S(=O)(=O)c1ccc2c(c1)n(C)c(=O)c(=O)n2C	-8.3%
CC(Sc1sc(=S)sc1SC(C)C(=O)O)C(=O)O (stereo not given)	-4.4%
CN(C)C(CNC(=O)c1ccc2c(c1)S(=O)(=O)c1ccccc1C2=O)c1ccco1 (stereo not given)	-10.2%
CCN(CC)c1ccc(NC(=O)Cn2ncc3c(C)n(Cc4ccccc4F)c(C)c3c2=O)c(C)c1	9.3%&-17.5%
CC(C)c1cc(C(F)(F)F)n2nc(C(=O)O)cc2n1	21.2%
COc1ccc(CN2CCNC(=O)C2CC(=O)N2CCCN(C(C)=O)CC2)c(OC)c1 (stereo not given)	-1.7%
Cc1ccc(S(=O)(=O)N2CCCC2CNC(=O)c2ccc3c(c2)OCO3)cc1 (stereo not given)	3.1%
Cc1ccc(C(=O)Nc2ccc(F)cc2F)o1	1.8%
O=C(/C=C/c1ccc(O)cc1)c1ccccc1O	5.62µM*
COc1cc(C(=O)O/N=C(\N)c2ccc([N+](=O)[O-])cc2)cc(OC)c1OC	-12.9%
CCc1ccccc1NC(=O)Cn1cccc1C1=NC(c2ccccc2)CO1 (stereo not given)	-3.3%
C/C(=N\OCC(=O)Nn1c(C)nc2ccccc2c1=O)c1ccccc1	-18.6%
CCN(CC)CCCN1C(=O)C(=O)/C(=C(/O)c2ccc(C)cc2)C1c1ccccn1 (stereo not given)	-13.8%
NC(=O)c1ccccc1NC(=O)c1cc(S(=O)(=O)N2CCCCC2)ccc1N1CCOCC1	-8.2%
Cc1cccc(NC(=O)CCS(=O)(=O)c2ccc(Cl)cc2)c1	-2.0%
Cc1cc2cc3c(cc2nc1SCc1ccc(C(=O)O)cc1)OCCO3	-18.0%
COc1cc2c(c(O)c1OC)-c1c(cc(OC)c(OC)c1OC)C[C@@H](C)[C@@H](C)C2	-5.4%
CCOc1ccc(NC(=O)CSc2nnc(-c3ccncc3)n2CC2CCCO2)cc1 (stereo not given)	-0.8%
CCN(CC)CCN1C(=O)C(O)=C(C(C)=O)C1c1ccc(OC)c(OC)c1 (stereo not given)	10.8%
CCCCN(C(=O)CCC(=O)Nc1cc(C)on1)C(C(=O)NC1CCCC1)c1ccccc1OCC (stereo not given)	-2.1%
CC(=O)Nc1ccc(NC(=O)C(Sc2ccccc2)c2ccccc2)cc1 (stereo not given)	14.8%
Cc1ccc(-n2nnc(-c3cccnc3)n2)cc1	2.4%
Cn1c(=O)[nH]c(=O)c2c1nc1n(CCO)c(-c3ccccc3)cn21	-4.7%
CCOC(=O)c1ccc(NC(=O)C(=O)NCc2ccncc2)cc1	27.9%
COc1cc(C#Cc2c(-c3cncn3C)n(C)c3ccc(-c4cc(OC)c(OC)c(OC)c4)cc23)cc(OC)c1	-17.8%
COc1ccc(CNC(=O)CCSCc2ccc(C)cc2)cc1	-28.7%
Cc1ccc([N+](=O)[O-])cc1NC(=O)Nc1cccc(F)c1	-7.1%
Cn1c(=O)c(-c2ccccc2)nc2cnc(Oc3ccccc3)nc21	-9.2%
CCC1(C(=O)OC)NC(c2ccccc2OC)C2C(=O)N(C)C(=O)C21 (stereo not given)	8.5%
COc1cccc(N2CCN(S(=O)(=O)c3ccc4c(c3)NC(=O)CS4)CC2)c1	-5.5%
Nc1nc(NCC2CCCO2)nc(Nc2cccc(F)c2)c1[N+](=O)[O-] (stereo not given)	-1.5%
